Screening results from PubChem BioAssay.
PrP 5UTR inh – suppresses PrP 5' UTR mRNA reporter expression | inhibition, % (concentration not given with the values) | cell-based PrP 5' UTR mRNA reporter, plate reader | hit rate 0.35% among 340,000;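 active means every replicate at 50% or more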;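 further: 0 = median of the neutral control wells; tested in H4 reporter cells; numbers are from one replicate; inactives centre near -14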
BJeLR lethal – kills HRASV12-expressing BJeLR cells. BJeLR (HRASV12) viability, CellTiter-Glo ATP luminescence, 48 h; reference of the scale not given here. inhibition, % (no concentration beside the values). hit rate 0.17% among 300,000;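 active means replicate mean above 50%; inconclusive means above 50% but judged a plate artefact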;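 further: 50 nL library stock added to about 25 µL; numbers are from one replicate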
RN4220 kill – S. aureus RN4220 growth inhibition. inhibition, % (test concentration not listed). OD600, 16 h. hit rate 0.33% among 330,000;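 active means z-score of -3 or lower and OD600 up to 0.18 on both plates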;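 further: plate controls were untreated cells for no effect and reference antibiotic for full effect; stock transfer was 100 nL into about 80 µL; one replicate is shown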
Mtb hypoxia rep – reduces hypoxia-regulated biosensor signal in M. tuberculosis. M. tuberculosis hypoxia-regulated fluorescent reporter, fluorescence. AID 1159583. hit rate 0.1% among 300,000. fluorescence inhibition, % (no concentration beside the values);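 active means 35 to 45% if threefold the growth effect, above 45% if 1.5-fold the growth effect; inactive means the rest, general growth blockers included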;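 further: wells of about 50 µL received 100 nL stock; 0% = vehicle wells and 100% = reference inhibitor wells; whole bacteria with a GFP reporter of the hypoxia response; strong numbers were not always called active; many hits fall short of the cut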
Bead autofluor – counter-screen for toxin protease inhibitors: compound fluorescence; AID 624483; compound autofluorescence counterscreen, microsphere flow cytometry; hits give high values; fluorescence intensity (no concentration beside the values); hit rate 3.1% among 360,000;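 active means at least 3 SD above the mean of all compounds, about 16000 in these data; inconclusive means too few beads counted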;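 further: 100 nL of 1 mM stock went into each well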
ugtP null kill – compounds lethal to S. aureus RN4220 ugtP deletion mutant; AID 1259309; hit rate 0.54% among 330,000; growth inhibition, % (concentration not given with the values); OD600 growth, 16 h; some inactives read as strong as hits;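 active means z-score under -3 and OD600 up to 0.15 on both plates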;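 further: plate controls were untreated wells for no effect and antibiotic for full effect; wells of about 80 µL received 100 nL stock; the first replicate is given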
Mtb hypoxia rep growth – second read-out of Mtb hypoxia rep, no call of its own (marks repeat the call); growth inhibition, %; measured here: M. tuberculosis growth (absorbance);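 0% = vehicle and 100% = reference antibiotic; read after six days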
* = called active by the depositor; ? = inconclusive; · = not tested or not shown. An unsorted share of the library. Share with any hit: about 4%.

SMILES	PrP 5UTR inh	BJeLR lethal	RN4220 kill	Mtb hypoxia rep	Mtb hypoxia rep growth	Bead autofluor	ugtP null kill
CCCCN(CCCNC(=O)c1ccc2nc(N3CCOCC3)sc2c1)Cc1ccccc1	4	-5	-1.7	0	10	4688	4
Cc1cc(C)cc(NC(=O)CN2CCN(CCN=CC3=C(O)CC(C)(C)CC3=O)CC2)c1	-8	-4	1.3	15	5	3154	2
COc1ccc(N2C(=O)C3CCCN3C2c2ccc(C)cc2)cc1 (stereo not given)	0	-11	4.5	·	·	5974	6
Cc1cc(C=NNC(N)=S)c(C)n1-c1ccc(Cl)c(Cl)c1	·	·	8.2	·	·	·	-7
O=C(CC1C(=O)NCCN1Cc1c(F)cccc1Cl)NCCCn1cccn1 (stereo not given)	-20	-4	3.6	12	2	3615	2
O=C(NN=Cc1ccc([N+](=O)[O-])cc1)c1ccccc1OCc1ccccc1	·	·	3.3	3	-2	·	8
CS(=O)(=O)Cc1ccc(C(=O)Nc2cccc(-c3nc4ccccc4[nH]3)c2)cc1	-22	-5	2.1	-5	5	5489	18
O=c1[nH]cnc2nc(-c3ccc(N(CCCl)CCCl)cc3)[nH]c12	-63	·	7.6	7	3	4162	-13
CC(C)(C)n1nc2c(c1NC(=O)Cc1ccc(F)cc1)CSC2	-18	-18	12	-3	-3	6051	4
C=CCNC(=O)CCCc1ccccc1	-8	4	2.9	21	23	23759*	5
CN1/C(=C\C=C(C#N)C#N)C(C)(C)c2ccccc21	7	-6	2.0	-7	1	2132	-1
Clc1ccc(C2=NNC(=NCc3ccccc3)SC2)cc1	-27	7	3.1	1	2	3383	15
CC1CCCC(C)N1/N=C/c1cc(Br)cc(Br)c1O (stereo not given)	-22	-7	·	·	·	2084	·
COc1ccc(-n2c3c(c(=O)[nH]c2=O)C(NS(=O)(=O)c2ccc(Cl)cc2)(C(F)(F)F)C(=O)N3)cc1 (stereo not given)	-11	12	2.9	-6	6	5796	8
O=C(CCCCCn1c(=O)[nH]c2ccsc2c1=O)NCc1cccs1	-6	-4	-1.5	7	18	8586	-6
Cc1ccc(C(=O)COC(=O)c2ccc(Cl)c(N)c2)s1	-44	·	2.5	2	11	5829	-2
O=C(COc1ccccc1)NCC(c1cccs1)N1CCOCC1 (stereo not given)	-4	-3	4.4	5	3	8004	14
COc1ccc(NC(=O)C23CC4CC(C2)CC(c2ccccc2)(C4)C3)c(OC)c1	-21	-2	-6.9	11	0	2051	-13
CC(=NO)c1ncc(C(F)(F)F)cc1Cl	·	·	13	11	7	·	3
COc1cc(OC)c(CN2CCc3c([nH]c4ccccc34)C2)cc1Br	-30	1	-3.3	-9	-2	26222*	1
CCOC(=O)C1CCCN(C(=O)c2ccc(CNS(=O)(=O)c3ccc(C)cc3)cc2)C1 (stereo not given)	-22	-2	0.8	17	4	4305	8
CC(C)(C)C1C=C(C(=O)NCc2ccccc2)OC(OCCCCO)C1 (stereo not given)	·	·	5.4	4	0	·	-1
CCN(CC)C(=O)Nc1ccccc1C	-25	6	5.1	8	3	2839	7
Cc1cc2oc(=O)cc(-c3cc4ccccc4o3)c2cc1O	-27	-21	3.9	1	0	6203	-9
Cc1c(C(=O)NCc2cccs2)oc2ccccc12	-16	3	5.0	3	13	23183*	-5
COc1cc2c(cc1NC(=S)NC(=O)C=Cc1ccc(OC)c(OC)c1)oc1ccccc12	·	·	9.4	6	2	·	2
COc1ccc(CN2C(=O)NC(C)(c3ccc(C)cc3)C2=O)cc1F (stereo not given)	11	9	13	-1	-7	4158	0
O=C(c1ccccc1Cl)N1CCn2c1nc1ccccc12	-70	9	2.1	0	-1	5091	0
COc1ccc(C2C3=C(CCCC3=O)Nc3n[nH]c(C)c32)cc1OC (stereo not given)	-23	-2	3.2	-5	-1	4614	0
COc1cccc(N2CC(=O)N(c3cccc(OC)c3)CC2=O)c1	-16	-6	2.5	5	6	2578	6
CCOc1ccccc1COC(=O)c1cccc(-n2cnnn2)c1	-11	1	7.2	6	10	3872	4
CCCn1c(-c2cccs2)nc2ccccc21	-16	4	2.4	·	·	3224	20
CCOc1ccc2nc(SCC(=O)Nc3ccc4c(c3)OCCO4)[nH]c2c1	-16	19	-0.1	·	·	4378	4
C=CCc1cccc(C=Nn2cnnc2)c1O	·	·	0.4	-10	-16	·	2
COc1cc([N+](=O)[O-])cc(/C=N/NC(=O)c2cc(-c3ccccc3)nc3ccccc23)c1O	4	8	·	·	·	3290	·
CCn1cc(/C=C(\NC(=O)c2ccccc2OC)C(=O)NCCCN2CCOCC2)c2ccccc21	-28	-4	2.5	6	6	5049	5
COC(=O)c1ccccc1NC(=O)CSc1nc2cccnc2n1C	-17	-4	-4.4	-2	6	3264	0
O=C(COc1ccccc1)N1CCN(C2CC3CCC2C3)CC1 (stereo not given)	-14	-3	6.4	·	·	2760	5
O=C(Cn1cc2c(n1)CCCC2)Nc1ccccc1Cl	-38	-2	4.6	·	·	4272	2
C=CCn1c(Cc2cccs2)nnc1SCC(=O)Nc1ccc(C(=O)OCC)cc1	-12	-6	3.4	0	4	6685	5
COc1cccc(C2C(C#N)=C(N)Oc3cc(C)[nH]c(=O)c32)c1OC (stereo not given)	-14	3	8.4	-7	7	3198	-2
CCSc1nnc(NC(=O)c2cc(C)oc2C)s1	·	4	-1.2	4	6	8289	13
COc1ccc(CNC(=O)C(=O)NCCC2CCCCN2S(=O)(=O)c2cccs2)cc1 (stereo not given)	-15	-8	4.2	9	0	?	8
CC(C(=O)NC1CCS(=O)(=O)C1)N1C(=O)/C(=C/c2ccc(Cl)cc2)SC1=S (stereo not given)	3	-2	3.3	5	2	5542	1
Cc1nn(Cc2c(F)cccc2Cl)c(C)c1NC(=O)C1CC1	-5	2	1.5	-1	1	2416	-10
Cc1ccc2[nH]c(=O)c3cc(C(=O)N(C)c4ccc(C)c(C)c4)sc3c2c1	8	5	8.5	12	5	3483	-3
Cc1cc(NC(=O)C2CCCCC2)n(-c2nc3ccccc3[nH]2)n1	-28	-6	-13	·	·	2546	-13
CC(C)(C)SCCSC1=CC(=O)CC(c2ccccc2)C1 (stereo not given)	-35	8	1.1	15	-1	3626	14
C/C(=N\Nc1ccc(F)cc1F)c1ccc(N2CCOCC2)cc1	-31	1	·	·	·	3748	·
O=C1CCN(CCCc2ccccc2)CCN1[C@H](CO)c1ccccc1	-11	-2	·	·	·	2892	·
CCOc1ccc(Nc2ccc(N3C(=O)CCC3=O)cc2[N+](=O)[O-])cc1	-17	9	5.3	13	0	4523	6
O=c1c(-c2ccc(Cl)cc2)[n+]([O-])c2ccccc2n1O	-37	6	13	6	10	3085	-12
COC(=O)Cc1c(C)c2ccc(OC(C)C)cc2oc1=O	-27	-9	2.6	10	3	4642	-1
CCCOC(=O)Nc1sc2c(c1C(N)=O)CCCC2	-14	-7	-0.6	5	1	4495	3
Cc1ccc(C(=O)O)cc1S(=O)(=O)N1CCOCC1	-4	0	6.5	4	4	16552*	5
CNC(=O)Cn1c(C)cc(=O)c2cccc(C)c21	·	-13	3.8	-8	1	4407	-1
COc1ccccc1NC(=O)CCC(=O)c1ccc(-c2ccccc2)cc1	-13	16	15	5	2	3861	-4
Cc1cc(OCCCC(=O)Nc2cccc(-n3cnnn3)c2)ccc1Cl	-12	0	4.2	2	-4	5975	-14
COc1c(O)ccc2c1-c1c3c(cc4c1C(C2)N(C)CC4)OCO3 (stereo not given)	-6	0	4.0	3	3	3447	1
CCC12CN(C(=O)c3ccco3)CC(CC)(CN(C(=O)c3ccco3)C1)C2=O	-9	-3	-1.8	-5	-5	4268	-1

Seven successive records from above:
SMILES	PrP 5UTR inh	BJeLR lethal	RN4220 kill	Mtb hypoxia rep	Mtb hypoxia rep growth	Bead autofluor	ugtP null kill
CCCOC(=O)Nc1sc2c(c1C(N)=O)CCCC2	-14	-7	-0.6	5	1	4495	3
Cc1ccc(C(=O)O)cc1S(=O)(=O)N1CCOCC1	-4	0	6.5	4	4	16552*	5
CNC(=O)Cn1c(C)cc(=O)c2cccc(C)c21	·	-13	3.8	-8	1	4407	-1
COc1ccccc1NC(=O)CCC(=O)c1ccc(-c2ccccc2)cc1	-13	16	15	5	2	3861	-4
Cc1cc(OCCCC(=O)Nc2cccc(-n3cnnn3)c2)ccc1Cl	-12	0	4.2	2	-4	5975	-14
COc1c(O)ccc2c1-c1c3c(cc4c1C(C2)N(C)CC4)OCO3 (stereo not given)	-6	0	4.0	3	3	3447	1
CCC12CN(C(=O)c3ccco3)CC(CC)(CN(C(=O)c3ccco3)C1)C2=O	-9	-3	-1.8	-5	-5	4268	-1

(cont.)
SMILES	PrP 5UTR inh	BJeLR lethal	RN4220 kill	Mtb hypoxia rep	Mtb hypoxia rep growth	Bead autofluor	ugtP null kill
C=CCn1c(=O)c(C(=O)Nc2ccccc2S(N)(=O)=O)c(O)c2ccccc21	-85	-1	-21	1	2	4305	14
O=C(CCNS(=O)(=O)c1cccs1)N1CCN(c2cccc(C(F)(F)F)c2)CC1	-17	·	6.8	0	2	4014	2
CC1CCCCN1C(=O)COc1ccc2ccc(=O)oc2c1 (stereo not given)	-6	0	-0.8	20	13	3307	3
O=C(COc1ccccc1[N+](=O)[O-])NN=Cc1ccc[nH]1	·	·	3.0	11	8	·	8
CCOC(=O)c1c2c3c(c(Cl)ccc3[nH]c1=O)C(=O)c1ccccc1-2	-14	-1	34	-2	0	3422	3
COc1ccccc1N(CN1C(=O)c2ccccc2C1=O)C(=O)c1cccnc1	-12	0	8.2	1	2	11296	1
COCCNC(=O)CN(C(=O)Cn1nnc2ccccc21)c1ccc(F)c(Cl)c1	-6	2	2.3	9	3	3681	7
COC(=O)CN1C(c2ccc(OC)cc2)=Nc2ccc(Cl)cc2C1c1ccccc1 (stereo not given)	-28	-16	-7.4	-6	4	2708	8
Cc1c(O)ccc2c(CN3CCN(CCO)CC3)cc(=O)oc12	-4	6	7.3	8	-3	2537	-3
COCCN1C(=O)C(=O)/C(=C(/O)c2ccc(S(=O)(=O)N3CCOCC3)cc2)C1c1ccc(O)cc1 (stereo not given)	-18	4	2.4	12	2	4904	2
CCCCCCSc1cccc(-c2nc3ccc(C)cn3c2NCc2ccccc2)c1	-20	-2	14	17	9	3587	8
O=C(COc1ccc(Cl)cc1[N+](=O)[O-])N1CCCCCC1	-6	-2	·	·	·	4317	·
COCCNC(=S)NN=C(C)c1ccccc1F	·	·	4.7	12	1	·	5
Cc1cccc(NC(=O)CSc2nc(=O)n(CCN3CCOCC3)c3c2CCCC3)c1C	3	10	2.5	2	2	?	7
CCOc1cccc(C(=O)Nc2ccc3oc(Cc4ccc(Cl)cc4)nc3c2)c1	-21	2	-7.1	7	1	3334	-22
COC(C(=O)Nc1ccc(NC(=O)C(OC)c2ccccc2)cc1)c1ccccc1 (stereo not given)	4	7	-0.9	-20	-7	3783	-1

Single records (already shown):
Profile of COCCNC(=S)NN=C(C)c1ccccc1F : PrP 5UTR inh: ·; BJeLR lethal: ·; RN4220 kill: 4.7; Mtb hypoxia rep: 12; Mtb hypoxia rep growth: 1; Bead autofluor: ·; ugtP null kill: 5
Profile of Cc1cccc(NC(=O)CSc2nc(=O)n(CCN3CCOCC3)c3c2CCCC3)c1C : PrP 5UTR inh: 3; BJeLR lethal: 10; RN4220 kill: 2.5; Mtb hypoxia rep: 2; Mtb hypoxia rep growth: 2; Bead autofluor: ?; ugtP null kill: 7
